Sa growth inh = inhibitors of Staphylococcus aureus growth at 42 °C; relative growth, % (test concentration not listed); 170,000 compounds, 0.53% hits; S. aureus RN4220 growth, OD600, 20 h; hits give low values; AID 720641;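 active means growth at 42 °C up to 50% and 20 or more points under that at 30 °C, or under 10% at both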;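 further: 300 nL library stock went into each well; scaled to the means of positive and negative controls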
HCMV NEC inh = cytomegalovirus nuclear egress complex inhibition | HTRF UL50-UL53 interaction, normalized percent inhibition | inhibition, % (concentration not given with the values) | 190,000 compounds, 0.15% hits;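 active means both replicates at 50% or more, plus weaker picks with an unusually low signal ratio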;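 further: stock transfer was 100 nL into about 20 µL; 0% = negative control wells and 100% = wells with untagged competitor protein; inactives centre near -12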
GIV Gai3 FP = blocks GIV peptide binding to rat Galpha-i3; 210,000 compounds, 0.42% hits; Galpha-i3/FITC-GIV peptide fluorescence polarization, 90 min; hits give low values; scaled: aluminum fluoride 0%, vehicle 100%; P08753; percent of control (FP), % (test concentration not listed);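 active means replicate mean at 85% of control or lower, very high polarization wells dropped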;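 further: wells of about 15 µL received 100 nL stock; the first replicate is given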
Target sequence (P08753 whole entry, looked up): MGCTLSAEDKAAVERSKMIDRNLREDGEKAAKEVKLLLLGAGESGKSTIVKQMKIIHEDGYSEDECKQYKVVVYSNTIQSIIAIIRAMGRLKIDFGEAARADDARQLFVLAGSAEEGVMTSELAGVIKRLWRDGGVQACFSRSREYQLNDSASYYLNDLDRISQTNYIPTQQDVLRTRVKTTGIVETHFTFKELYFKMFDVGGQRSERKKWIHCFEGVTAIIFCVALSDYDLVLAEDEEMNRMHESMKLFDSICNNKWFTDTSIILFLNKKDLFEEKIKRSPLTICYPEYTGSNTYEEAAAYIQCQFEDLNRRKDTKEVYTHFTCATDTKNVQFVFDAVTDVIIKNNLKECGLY
Sa growth inh second temp = further read-out of Sa growth inh, marked with its call; relative growth, %; measured here: growth at 30 °C;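 optical density after 20 h as mean of two plates; 100% = untreated growth and lower means inhibition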
* = called active by the depositor; . = not tested or not shown; & = joins results of further samples.

Start of the data: the first 7 entries, to show the layout:
1) N#Cc1ccc(CSc2nnc(-c3cccc(S(=O)(=O)N4CCCCC4)c3)n2-c2ccccc2)cc1
2) Cc1cc(-c2nc(-c3ccc4c(c3)OCO4)no2)n[nH]1
3) COc1cc(/C=C2/SC(=S)N(NC(C)=O)C2=O)ccc1O
4) Cc1cc(C)c(-c2c(N3CCOCC3)c(=O)c2=O)cc1C
5) CC(C)S(=O)(=O)/C(C#N)=C/c1ccccc1OC(F)(F)F
6) Cc1[nH]c(C(=O)Nc2ccccc2F)c(C)c1S(=O)(=O)N1CCCC1
7) Cc1c(C(=O)c2ccc(OC(F)F)cc2)oc2ccc(F)cc12

Screen / compound no. | 1 | 2 | 3 | 4 | 5 | 6 | 7
Sa growth inh | 78 | . | 61 | . | 108 | . | 90
HCMV NEC inh | -2 | -4 | -125 | -12 | -2 | -16 | 6
Sa growth inh second temp | 89 | . | 51 | . | 88 | . | 98
GIV Gai3 FP | . | 104 | . | 108 | 104 | 110 | .

Main list (from the top)
1) N#Cc1ccc(CSc2nnc(-c3cccc(S(=O)(=O)N4CCCCC4)c3)n2-c2ccccc2)cc1
2) Cc1cc(-c2nc(-c3ccc4c(c3)OCO4)no2)n[nH]1
3) COc1cc(/C=C2/SC(=S)N(NC(C)=O)C2=O)ccc1O
4) Cc1cc(C)c(-c2c(N3CCOCC3)c(=O)c2=O)cc1C
5) CC(C)S(=O)(=O)/C(C#N)=C/c1ccccc1OC(F)(F)F
6) Cc1[nH]c(C(=O)Nc2ccccc2F)c(C)c1S(=O)(=O)N1CCCC1
7) Cc1c(C(=O)c2ccc(OC(F)F)cc2)oc2ccc(F)cc12
8) O=C(O)CSc1nc2c(n1-c1ccccc1)CCCC2

Screen / compound no. | 1 | 2 | 3 | 4 | 5 | 6 | 7 | 8
Sa growth inh | 78 | . | 61 | . | 108 | . | 90 | 102
HCMV NEC inh | -2 | -4 | -125 | -12 | -2 | -16 | 6 | -8
Sa growth inh second temp | 89 | . | 51 | . | 88 | . | 98 | 95
GIV Gai3 FP | . | 104 | . | 108 | 104 | 110 | . | .

9) NC(=O)c1cccc2cccc(I)c12
10) COC(=O)c1sc(-c2cccs2)cc1NS(=O)(=O)c1ccc(C)cc1
11) Clc1nc(Nc2cccc3ccccc23)nc(N2CCOCC2)n1
12) CCOC(=O)c1csc(-c2ccc(-c3csnn3)cc2)n1
13) O=C1C2C3C=CC(C3)C2C(=O)N1c1ccccc1 (stereo not drawn)
14) CCOC(=O)Cn1c(=O)n(C2CCCCC2)c2nc(-c3ccc(CC)cc3)nc(C(N)=O)c21
15) CCOc1cc2c(cc1OCC)C(CC(=O)O)N(C(=O)Nc1ccccc1C(F)(F)F)CC2 (stereo not drawn)
16) Cc1c(C#N)c(NC(=O)Cc2c(Cl)cccc2Cl)n(C2CCCCC2)c1C

Screen / compound no. | 9 | 10 | 11 | 12 | 13 | 14 | 15 | 16
Sa growth inh | 88 | 104 | . | 97 | 104 | 98 | 92 | 102
HCMV NEC inh | -69 | -6 | -16 | -31 | . | . | . | -32
Sa growth inh second temp | 91 | 90 | . | 92 | 88 | 96 | 94 | 95
GIV Gai3 FP | 106 | 102 | 103 | 105 | 100 | 99 | 98 | .

17) Cc1cc2c(cc1C)N(CC(=O)NCc1ccco1)C(=O)C1CCCC1=N2 (stereo not drawn)
18) O=C1CSCC(=O)N1c1ccc(Cl)cn1
19) CC1CCN(S(=O)(=O)c2ccc3c(c2)N(CC(=O)NC(C)C)C(=O)CS3)CC1
20) CC1=Nc2cc(C(=O)NCC3CCCO3)ccc2Sc2ccccc21 (stereo not drawn)
21) COc1ccc(-c2noc(-c3cc(C4CC4)[nH]n3)n2)cc1OC
22) CC1C(O)C(N(C)C)CC2COCC21 (stereo not drawn)
23) CCOc1ccc(N(C(=O)NC2CCCCC2)C2=NCCCCC2)cc1
24) CC(C)Cc1ccc(C(C)c2nc3ccccc3[nH]2)cc1 (stereo not drawn)

Screen / compound no. | 17 | 18 | 19 | 20 | 21 | 22 | 23 | 24
Sa growth inh | . | 104 | 111 | 103 | . | 95 | 73 | 101
HCMV NEC inh | -18 | -20 | -29 | -2 | -15 | -4 | -35 | -6
Sa growth inh second temp | . | 89 | 88 | 93 | . | 94 | 80 | 65
GIV Gai3 FP | 104 | 103 | 108 | 98 | 103 | . | . | .

25) CCN(c1nc(C)cc(OC)n1)S(=O)(=O)c1ccc(C)cc1
26) O=C(Nc1ccccc1)OC1CCCC1
27) CCN1CCN(C(=O)c2cccc(Nc3nc4ccccc4n4cnnc34)c2)CC1
28) CC1CCN(S(=O)(=O)c2cc3c4c(c2)CC(=O)N4CCC3)CC1
29) Cc1nc2nc3c(c(N4CCN(c5ccccc5)CC4)n2n1)CCCC3
30) CN(C)CCC(c1ccc(Cl)cc1)c1ccccn1 (stereo not drawn)
31) CC(=O)NC12CC3CC(C1)CC(C(=O)OCC(=O)Nc1cc(C)nn1-c1ccccc1)(C3)C2
32) CC(=O)N1CCc2[nH]c3ccccc3c2C1

Screen / compound no. | 25 | 26 | 27 | 28 | 29 | 30 | 31 | 32
Sa growth inh | 114 | 97 | 96 | 121 | . | 96&94&101 | 97 | 97
HCMV NEC inh | . | 0 | -47 | . | -14 | -37&-21&-4&-12&-88&-50&-17&-13 | -25 | -13
Sa growth inh second temp | 88 | 88 | 79 | 72 | . | 92&81&95 | 96 | 79
GIV Gai3 FP | 100 | 102 | 102 | 98 | 105 | 108&100&98 | . | 104

33) O=C(CCC(=O)c1ccc(F)cc1)Nc1ccc(Cl)cc1
34) CSc1sc(C(=O)O)c(C)c1C(C)O (stereo not drawn)
35) Cc1ccc2oc(-c3cccc(Cl)c3)nc2c1
36) Cc1sc2c(c1C)c(=O)n(-c1ccc(Cl)cc1)c(=O)n2CC(=O)c1ccccc1
37) Cc1sc(C)c(S(=O)(=O)NCc2ccc(Cl)cc2)c1-c1ccno1
38) CC(=O)Nc1sc(Cc2ccccc2)c(C)c1C(N)=O
39) CCC(C)NC(=O)CCn1c(=O)c2cccn2c2ccc(F)cc21 (stereo not drawn)
40) CC1CN(S(=O)(=O)c2ccc(NC(=O)CCS(=O)(=O)c3ccccc3)cc2)CC(C)O1 (stereo not drawn)

Screen / compound no. | 33 | 34 | 35 | 36 | 37 | 38 | 39 | 40
Sa growth inh | 103 | 107 | 94 | 96 | . | 99 | 80 | 102
HCMV NEC inh | . | -8 | -2 | -2 | -29 | -8 | -21 | -19
Sa growth inh second temp | 88 | 86 | 84 | 90 | . | 80 | 80 | 94
GIV Gai3 FP | 99 | 97 | 102 | 103 | 101 | . | 100 | .

41) NCC(c1ccccc1)c1c[nH]c2ccccc12 (stereo not drawn)
42) COC(=O)C(NC(=O)CCc1c(C)nc2cc(-c3cccc(F)c3)nn2c1C)C(C)C (stereo not drawn)
43) CN(C)Cc1c(C(=O)N/N=C/CCc2ccccc2)nnn1-c1nonc1N
44) Cc1c(-c2nc(-c3ccc(Cl)cc3)no2)sc2ncn(CC(=O)N3CCCC3)c(=O)c12
45) COc1cc(/C=C2\SC(=O)N(C)C2=O)ccc1Oc1ccc([N+](=O)[O-])cc1[N+](=O)[O-]
46) CC(C)C1Nc2ccc(C(F)(F)F)cc2NC1=O (stereo not drawn)
47) Cc1cc(=O)n2[nH]c([N+](=O)[O-])nc2n1
48) CCOc1ccc(NC(=O)C/C(N)=N/O)cc1

Screen / compound no. | 41 | 42 | 43 | 44 | 45 | 46 | 47 | 48
Sa growth inh | 110 | 103 | 103 | . | . | 73 | . | 96
HCMV NEC inh | -3 | -19 | 14 | 23 | -20 | 14 | -103 | -12
Sa growth inh second temp | 72 | 88 | 98 | . | . | 99 | . | 109
GIV Gai3 FP | 97 | 99 | 110 | 100 | 96 | . | 101 | 99

49) O=C(Nc1ccc(Oc2ccccc2)cc1)C1CCN(c2nc3ccccc3o2)CC1
50) CC(OC(=O)c1cccc(NS(C)(=O)=O)c1)C(=O)Nc1ccc(N2CCOCC2)cc1 (stereo not drawn)
51) Cc1nc(N)nc2[nH]c(=O)n(-c3ccccc3)c(=O)c12
52) CCn1c(C(=O)O)cc2cc(S(=O)(=O)N(C)C)ccc21
53) Cc1nc(N(c2ccccc2)c2ccccc2)sc1C
54) O=C(Nc1ccccc1Sc1ncnc2sc3c(c12)CCCC3)c1cccs1
55) O=C(CSc1ncnc2nc[nH]c12)N1CCN(c2ccccc2)CC1
56) CCCCN(Cc1cc2ccccc2[nH]c1=O)C(=O)c1cccc(Cl)c1

Screen / compound no. | 49 | 50 | 51 | 52 | 53 | 54 | 55 | 56
Sa growth inh | 97 | 87 | 125 | . | 118 | 121 | 92 | 120
HCMV NEC inh | -22 | -18 | -9 | -28 | 10 | . | -9 | -12
Sa growth inh second temp | 95 | 95 | 96 | . | 102 | 91 | 68 | 87
GIV Gai3 FP | . | . | 104 | 101 | . | 111 | 101 | 105

Single values from above.
Sa growth inh second temp result of #28 is entered as 72
HCMV NEC inh result of #29 is entered as -14
HCMV NEC inh result of #45 is entered as -20
GIV Gai3 FP result of #33 is entered as 99
GIV Gai3 FP result of #21 is entered as 103

(continued)
57) O=C(Cn1c(SCc2ccccc2)nc2ccccc21)N1CCCCC1
58) N#CC1=C(N)N(N2CCOCC2)C2=C(C(=O)CC(c3ccccc3)C2)C1c1ccccc1Cl (stereo not drawn)
59) O=C(O)C1CC1c1ccccc1 (stereo not drawn)
60) Cc1c(-c2ccccc2)nc(N)c(C#N)c1-c1ccco1
61) O=c1c(Br)c(N2CCNCC2)cnn1-c1ccccc1
62) Cc1nn(CCOc2c(Cl)cccc2Cl)c(=O)c(C#N)c1C
63) CC(C)CNC(=O)c1ccc(COCC(F)(F)C(F)F)o1
64) O=C(c1ccc(CN2C(=O)CCn3nc(-c4ccccc4)cc32)cc1)N1CCN(c2ccccn2)CC1

Screen / compound no. | 57 | 58 | 59 | 60 | 61 | 62 | 63 | 64
Sa growth inh | . | 106 | 99 | 86 | 94 | 112 | 109 | 104
HCMV NEC inh | -18 | . | -17 | 0 | -19 | -45 | -6 | -26
Sa growth inh second temp | . | 85 | 106 | 87 | 99 | 98 | 95 | 86
GIV Gai3 FP | 100 | 98 | 104 | 105 | 95 | . | 106 | 105

65) Cc1cccc(-n2ccnc(NCc3ccc(Cl)cc3)c2=O)c1
66) COc1ccc(-c2nc(C#N)c(N3CCCC3)o2)cc1
67) O=C(NC1CCCCCC1)[C@@H]1CCCN1S(=O)(=O)c1ccc2c(c1)OCCO2
68) COc1ccccc1CNc1n[nH]c(=S)s1
69) O=C(CCn1c(SCc2cccc(F)c2)nc2cc3c(cc2c1=O)OCO3)NCc1ccc2c(c1)OCO2
70) O=C1c2ccccc2S(=O)(=O)N1Cc1ccc2nsnc2c1
71) CCOc1ccc(-c2nonc2NC(=O)COc2ccc(C)c(C)c2)cc1OCC
72) COc1cc2c(cc1OC)C(c1ccccc1)N(C(=O)COC(=O)C1=NNC(=O)CC1)CC2 (stereo not drawn)

Screen / compound no. | 65 | 66 | 67 | 68 | 69 | 70 | 71 | 72
Sa growth inh | . | 88 | 88 | 36 | 103 | 116 | 103 | 91
HCMV NEC inh | -1 | -6 | -17 | -5 | -14 | -219 | 8 | 1
Sa growth inh second temp | . | 81 | 96 | 25 | 90 | 90 | 92 | 94
GIV Gai3 FP | 108 | 101 | . | 99 | 102 | 109 | 100 | .

7 compounds from above, reduced to Sa growth inh, GIV Gai3 FP and HCMV NEC inh.
cpd | structure | Sa growth inh | GIV Gai3 FP | HCMV NEC inh
50 | CC(OC(=O)c1cccc(NS(C)(=O)=O)c1)C(=O)Nc1ccc(N2CCOCC2)cc1 (stereo not drawn) | 87 | . | -18
51 | Cc1nc(N)nc2[nH]c(=O)n(-c3ccccc3)c(=O)c12 | 125 | 104 | -9
52 | CCn1c(C(=O)O)cc2cc(S(=O)(=O)N(C)C)ccc21 | . | 101 | -28
53 | Cc1nc(N(c2ccccc2)c2ccccc2)sc1C | 118 | . | 10
54 | O=C(Nc1ccccc1Sc1ncnc2sc3c(c12)CCCC3)c1cccs1 | 121 | 111 | .
55 | O=C(CSc1ncnc2nc[nH]c12)N1CCN(c2ccccc2)CC1 | 92 | 101 | -9
56 | CCCCN(Cc1cc2ccccc2[nH]c1=O)C(=O)c1cccc(Cl)c1 | 120 | 105 | -12

More results.
73) CC1CCCC(C)N1C(=O)COC(=O)c1ccccc1I (stereo not drawn)
74) CNC(=O)COc1ccc(Nc2nnc(-c3ccc(C)c(S(=O)(=O)NC(C)C)c3)c3ccccc23)cc1
75) C=CCn1c(=O)/c(=C/c2sccc2C)s/c1=C(/C#N)C(=O)NCc1ccco1
76) NC(CO)CSCc1ccccc1 (stereo not drawn)
77) CCOc1ccc([C@@H]2[C@H](C(=O)O)c3ccccc3C(=O)N2Cc2ccccc2)c(O)c1
78) N#Cc1cccc2c1NC(c1cccc(Cl)c1Cl)C1CC=CC21 (stereo not drawn)
79) Cc1ccc(-c2csc3nc(C)n(-n4cccc4)c(=O)c23)o1
80) C/C(Cl)=C\Cn1c(SCC(N)=O)nc2c1c(=O)[nH]c(=O)n2C
81) Cc1ccc2[nH]c(=O)c(-c3noc(C(C)C)n3)cc2c1
82) Cn1c(=O)c2c(n3nnnc13)-c1ccccc1CC21CCCC1
83) Cc1ccc2nsnc2c1S(=O)(=O)NC1CC1

Screen / compound no. | 73 | 74 | 75 | 76 | 77 | 78 | 79 | 80 | 81 | 82 | 83
Sa growth inh | 93 | . | 98 | 92 | 90 | . | 105 | . | 71 | 79 | 107
HCMV NEC inh | 18 | -13 | -8 | -12 | -9 | -14 | -33 | -14 | -23 | -2 | .
Sa growth inh second temp | 99 | . | 88 | 95 | 95 | . | 87 | . | 69 | 105 | 86
GIV Gai3 FP | . | 105 | . | 102 | . | 107 | . | 97 | 108 | 109 | 100

Bioassay records (PubChem)

Hits appear at their usual frequency; about 0.82% have a hit in one of these screens.
